Source: PubChem (Johns Hopkins Ion Channel Center)
KCNQ2 block – KCNQ2 potassium channel inhibitors, primary screen, cell-based, CHO-K1, FluxOR thallium flux, B-score (AID 2156); Potassium voltage-gated channel subfamily KQT member 2 (Rattus norvegicus), O88943; 20 min; stronger effect = lower value; only compounds with negative scores are shown here; some inactives read as strong as hits; B-score at 10 µM; 310,000 tested, 1.1% active;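 active = fluorescence ratio B-score at most minus 3 library SDs, with starting brightness B-score within 2 library SDs, cut at about -5.5 in these data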
Target sequence (O88943 whole entry, looked up): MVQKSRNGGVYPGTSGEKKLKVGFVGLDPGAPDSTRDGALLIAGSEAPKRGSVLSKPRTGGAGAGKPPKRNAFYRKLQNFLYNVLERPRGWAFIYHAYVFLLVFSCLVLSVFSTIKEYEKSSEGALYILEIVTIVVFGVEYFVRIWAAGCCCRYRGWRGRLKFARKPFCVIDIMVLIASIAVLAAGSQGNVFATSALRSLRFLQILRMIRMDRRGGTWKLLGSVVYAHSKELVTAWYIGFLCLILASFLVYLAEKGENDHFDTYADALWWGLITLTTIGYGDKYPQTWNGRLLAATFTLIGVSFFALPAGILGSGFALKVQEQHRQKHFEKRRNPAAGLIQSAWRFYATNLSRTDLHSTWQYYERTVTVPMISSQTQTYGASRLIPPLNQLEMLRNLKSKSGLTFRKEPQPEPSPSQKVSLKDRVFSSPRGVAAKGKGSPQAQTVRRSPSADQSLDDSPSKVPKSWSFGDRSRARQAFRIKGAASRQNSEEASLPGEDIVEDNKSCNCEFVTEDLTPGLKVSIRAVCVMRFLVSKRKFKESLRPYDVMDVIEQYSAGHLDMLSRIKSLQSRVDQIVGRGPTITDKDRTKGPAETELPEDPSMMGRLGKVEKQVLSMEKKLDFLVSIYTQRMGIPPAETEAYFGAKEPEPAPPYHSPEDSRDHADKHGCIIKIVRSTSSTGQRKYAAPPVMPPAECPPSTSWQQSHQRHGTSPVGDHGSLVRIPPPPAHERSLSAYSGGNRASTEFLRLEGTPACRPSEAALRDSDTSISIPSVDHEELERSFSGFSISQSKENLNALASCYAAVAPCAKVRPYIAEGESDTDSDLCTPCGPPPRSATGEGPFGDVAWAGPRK
KCNQ2 block baseline – recorded beside KCNQ2 block, whose call it bears; B-score; measured here: initial fluorescence intensity artifact check;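 brightness before thallium and not channel activity; 0 = typical well and far values either way flag optical interference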
* = called active by the depositor; i = inactive. Not all compounds are listed, so the mix of outcomes need not match the whole.

SMILES	KCNQ2 block	KCNQ2 block baseline
O=C(NC(=S)Nc1ccc2[nH]c(=O)[nH]c2c1)c1ccccc1Cl	i	0.36
N/C(=N\OC(=O)c1cccs1)c1ccccc1	i	1.1
CCOC(=O)c1c(S(=O)(=O)NCC2CCN(Cc3cccc(F)c3)CC2)c(C)n(C)c1C	i	1.3
C/C(=N\N1C(=O)CSC1=S)c1ccc(Br)cc1	i	-0.05
Cc1cc(C)c(S(=O)(=O)Nc2cnc3ccccc3c2)c(C)c1	i	0.04
COc1ccc(NC(=O)C(NCC(C)C)c2ccccc2)cc1Cl (stereo not given)	i	0.18
O=C(CN(Cc1ccccc1)C(=O)c1ccc2c(c1)OCCO2)NCc1ccc2c(c1)OCO2	i	-0.59
CCc1ccc(OCc2nnc(SCC(=O)N3CCN(c4ccccc4)CC3)o2)cc1	i	-1.1
O=C(NC1(C(F)(F)F)NC(=O)N(c2ccc(F)cc2)C1=O)c1ccncc1 (stereo not given)	i	-1.6
Cc1ccc(-n2c(SCC(=O)NC3CCS(=O)(=O)C3)nc3ccccc3c2=O)cc1C (stereo not given)	i	0.47
COc1ccccc1C(=O)Nn1c(C2CCC2)nc2ccccc2c1=O	i	-0.01
CCCNC(=O)c1ccc2c(c1)nc(C)n2-c1cccc(Cl)c1	i	-1.3
COCCn1c(=O)[nH]c2cc(C(=O)Nc3ccc(OC)c(Cl)c3)ccc2c1=O	i	-1.5
Nc1cccc(C(=O)OCC(=O)NC2CCCc3ccccc32)c1 (stereo not given)	i	0.31
COc1ccc(C(=O)/C=C/Nc2ccc(C)cn2)cc1OC	i	1
Cc1ccc(N(CN2CCCC2=O)C(=O)c2ccccc2)cc1	i	-0.66
O=[N+]([O-])c1cccc2nc(-c3ccccc3)c(-c3ccccc3)nc12	-7.6*	2.8*
CN1CCCC1CCNc1ccc2sc3ccccc3c(=O)c2c1 (stereo not given)	i	4.3
COc1ccccc1CNc1ccc2c(c1)CCC2	i	0.5
Nc1ccc(-c2nc3cc(N)ccc3n2CCO)cc1	i	-0.04
COc1ccc(C(C(=O)NC(C)(C)C)N(C(=O)CCC(=O)Nc2ccccn2)C2CCCCC2)cc1 (stereo not given)	i	1.2
COc1ccc(CNC(=O)CCC(=O)Nc2nnc(C(C)C)s2)cc1	i	1.1
CC1CC(C)CN(C(=O)Cn2ncc3c([nH]c4ccccc43)c2=O)C1 (stereo not given)	i	-0.29
O=C(c1ccccc1CCc1ccccc1)N1CCN(c2ccccn2)CC1	i	0.15
COc1ccc(CN(CC(=O)NC2CCCCC2)C(=O)CCC(=O)Nc2nccs2)cc1	i	1.3
C#CCSc1nnc(-c2cc3c(C(F)(F)F)nn(C)c3s2)n1C	i	-0.67
NC(=O)c1ccc(NCCCN2CCOCC2)c([N+](=O)[O-])c1	i	0.83
COCCCn1c(CCC(=O)O)ccc1-c1cccs1	i	1.3
CCOc1cc(C(=O)NCc2ccncc2)cc(OCC)c1OCC	i	-0.07
C=C(C)COc1ccc(-c2[nH]ncc2Oc2ccccc2OCC)c(O)c1	i	1.8
CCNC(=S)N/N=C/c1ccc(F)cc1	i	1
Cc1ccn2c(=O)nc(SCC(=O)NCc3ccccc3Cl)nc2c1	i	2.1
CSc1ccc(C(=S)N2CCN(Cc3ccccc3)CC2)cc1	i	1.7
N#Cc1ccsc1NC(=O)CCN1CCN(C(c2ccccc2)c2ccccc2)CC1	i	-1.3
CCN(CC(=O)Nc1ccccc1C(=O)OC)S(=O)(=O)c1ccccc1	i	-0.97
Cc1ccc(S(=O)(=O)c2nc(S(C)(=O)=O)sc2N2CCCCC2C)cc1 (stereo not given)	i	0.02
Cc1ccc(-n2c(O)c(/C=N/NC(=O)C3COc4ccccc4O3)c3ccccc3c2=O)cc1 (stereo not given)	i	1.8
C=C(C)COc1ccc(-c2nc(N)ncc2-c2ccc(Cl)cc2)c(O)c1	i	0.63
O=C(CSc1c2c(nc3ccc(Cl)cc13)CCCC2)NCc1ccco1	i	0.08
CCC(=O)c1cn(CC(=O)Nc2ccc(C)cc2)c2ccccc12	i	0.01
O=[N+]([O-])c1ccccc1S(=O)(=O)N1CCN(c2ccc(F)cc2)CC1	i	-1.4
CC(=O)Nc1ccc(S(=O)(=O)N2CCN(C(=O)Cc3ccccc3)CC2)cc1	i	0.19
CC1=C(C(=O)N(C)Cc2ccccc2)C2(CCC(C)CC2)OC1=O (stereo not given)	i	0.58
Cc1ccc(N2Cc3ccccc3C2=S)cc1	i	0.59
O=S(=O)(c1ccccc1)c1nc(-c2cccc(Cl)c2)oc1N1CCOCC1	i	1.3
O=C(O)COCC(=O)NCc1csc2ccccc12	i	-0.19
O=C(NC1CCCc2ccccc21)c1ccc(=O)[nH]c1 (stereo not given)	i	1.2
C=CCNC(=S)N1CCC(C(=O)c2ccc(C)cc2)CC1	i	0.19
CCOc1ccc(NC(=O)CCS(=O)(=O)c2ccc(Br)cc2)cc1	i	0.3
CC(C)CNC(=O)c1cccc(NC(=O)Cc2ccc(Br)cc2)c1	i	-0.34
O=C(O)CCn1cc(/C=N/O)c(-c2cccc([N+](=O)[O-])c2)n1	i	0.68
O=C(Oc1cc(=O)n2ccccc2n1)c1ccccc1	i	1.4
Cc1ccc(C)c2sc(N3CCN(C(=O)c4ccc([N+](=O)[O-])o4)CC3)nc12	i	0.24
COc1cc(C(=O)O)c2c(c1C)OC(=O)c1c(C)cc(O)c(C=O)c1O2	i	1.1
O=C(c1ccco1)N1CCN(Cc2nnc(-c3ccccc3)o2)CC1	i	1.3
CCOc1ccc(NS(=O)(=O)c2cc(NC(=O)c3cccc(C)c3)ccc2Cl)cc1	i	-0.23
CCOc1ccc(C(=O)/C=C/c2ccc(SC)cc2)cc1	i	-0.66
O=C(NC1CCCC1)C(c1cccnc1)N(CCc1ccccc1)C(=O)c1ccco1 (stereo not given)	i	0.7
Cc1ccc(NC2c3ncccc3C(=O)N2C2CCCCC2)cc1C (stereo not given)	i	1.3
Clc1ccccc1Cc1noc(CN2CCN3CCCC3C2)n1 (stereo not given)	i	0.44

The results go on.
SMILES	KCNQ2 block	KCNQ2 block baseline
COc1ccc(CCN2CC(C(=O)N(C)CCOc3ccccc3)CCC2=O)cc1 (stereo not given)	i	-1.1
O=C(CNc1cccc(C(F)(F)F)c1)N/N=C/c1cn(-c2ccccc2)nc1-c1ccccc1	i	0.16
CC(OC(=O)CNS(=O)(=O)c1ccc(C#N)cc1)C(=O)Nc1ccc(Cl)cn1 (stereo not given)	i	-0.08
COCCNC(=O)CSc1nc(-c2ccc(OC)c(OC)c2)cc(C(F)(F)F)n1	i	-1.2
CN(CC(=O)Nc1cccc(F)c1)C(=O)CCCN1C(=O)c2cccc3cccc(c23)C1=O	i	-0.96
CCc1ccccc1N1C(=O)CC(N2CCc3ccccc32)C1=O (stereo not given)	i	2.3
Cc1ccc(-n2nnnc2CSc2nnc(-c3ccc(O)cc3)o2)cc1	i	2
Cc1ccc(S(=O)(=O)NCc2ccncc2)c(C)c1C	i	-0.16
CCOC(=O)c1ccc(N2CN(CC)CNC2=S)cc1	i	-1.4
COc1ccccc1CNC(=O)c1cc(S(=O)(=O)N2CCCCC2)c[nH]1	i	0.66
CC1=C(C#N)C(C(F)(F)F)(C(F)(F)F)N=C(c2ccco2)N1	i	-0.26
CC(=O)Nc1ccc(N(CC(=O)NCC2CCCO2)C(=O)CCC(=O)Nc2cc(C)on2)cc1 (stereo not given)	i	-0.13
CCCCN(C)CCNC(=O)c1cn(C)c(=O)c2c1c1ccccc1n2C	i	-0.01
Cc1ccc(C)c(S(=O)(=O)/N=C2\C=C(NS(=O)(=O)c3ccccc3)C(=O)c3ccccc32)c1	i	-2
CCN(CCCNC(=O)CCCCn1c(=O)[nH]c2ccccc2c1=O)c1ccccc1	i	-1.2

Already shown: entries from further up.
SMILES	KCNQ2 block	KCNQ2 block baseline
O=C(NC1CCCC1)C(c1cccnc1)N(CCc1ccccc1)C(=O)c1ccco1 (stereo not given)	i	0.7
Cc1ccc(NC2c3ncccc3C(=O)N2C2CCCCC2)cc1C (stereo not given)	i	1.3
Clc1ccccc1Cc1noc(CN2CCN3CCCC3C2)n1 (stereo not given)	i	0.44
COc1ccc(CCN2CC(C(=O)N(C)CCOc3ccccc3)CCC2=O)cc1 (stereo not given)	i	-1.1
O=C(CNc1cccc(C(F)(F)F)c1)N/N=C/c1cn(-c2ccccc2)nc1-c1ccccc1	i	0.16
CC(OC(=O)CNS(=O)(=O)c1ccc(C#N)cc1)C(=O)Nc1ccc(Cl)cn1 (stereo not given)	i	-0.08
COCCNC(=O)CSc1nc(-c2ccc(OC)c(OC)c2)cc(C(F)(F)F)n1	i	-1.2
CN(CC(=O)Nc1cccc(F)c1)C(=O)CCCN1C(=O)c2cccc3cccc(c23)C1=O	i	-0.96
CCc1ccccc1N1C(=O)CC(N2CCc3ccccc32)C1=O (stereo not given)	i	2.3
Cc1ccc(-n2nnnc2CSc2nnc(-c3ccc(O)cc3)o2)cc1	i	2
Cc1ccc(S(=O)(=O)NCc2ccncc2)c(C)c1C	i	-0.16
CCOC(=O)c1ccc(N2CN(CC)CNC2=S)cc1	i	-1.4
COc1ccccc1CNC(=O)c1cc(S(=O)(=O)N2CCCCC2)c[nH]1	i	0.66
CC1=C(C#N)C(C(F)(F)F)(C(F)(F)F)N=C(c2ccco2)N1	i	-0.26
CC(=O)Nc1ccc(N(CC(=O)NCC2CCCO2)C(=O)CCC(=O)Nc2cc(C)on2)cc1 (stereo not given)	i	-0.13
CCCCN(C)CCNC(=O)c1cn(C)c(=O)c2c1c1ccccc1n2C	i	-0.01
Cc1ccc(C)c(S(=O)(=O)/N=C2\C=C(NS(=O)(=O)c3ccccc3)C(=O)c3ccccc32)c1	i	-2
CCN(CCCNC(=O)CCCCn1c(=O)[nH]c2ccccc2c1=O)c1ccccc1	i	-1.2

Next part:
SMILES	KCNQ2 block	KCNQ2 block baseline
Cc1ccc(Cl)cc1NC(=O)COC(=O)CC1CC2CCC1C2 (stereo not given)	i	-0.32
Cc1ccc(-n2c(=S)[nH]c3sc4c(c3c2=O)CCc2ccccc2-4)cc1	i	0.08
COc1ccc(C2CC3(O)CC(C#N)(C(=O)N3)C2(C#N)C#N)cc1 (stereo not given)	i	-0.13
O=C(NCC1CCCO1)C1CCN(S(=O)(=O)c2ccc(Br)cc2)CC1 (stereo not given)	i	0.8
O=C(NCCCN1CCOCC1)c1ccc2c(c1)N(Cc1ccccc1)CCS2	i	0.68
CC(C)(C)NS(=O)(=O)c1ccc(CCC(=O)Nc2cc(Cl)ccc2Oc2ccccc2)cc1	i	4.1
Clc1ccccc1-c1nc(-c2ccccc2)n[nH]1	i	-0.86
COc1ccccc1-n1c(CNC(=O)c2ccco2)nnc1SCC(=O)Nc1ccc(F)cc1	i	0.07
Cc1cccc(N2CCN(C(=O)Cn3nc(Cc4ccncc4)c4ccccc4c3=O)CC2)c1C	i	0.02
c1ccc(Cn2nnnc2C(c2ccncc2)N2CCOCC2)cc1 (stereo not given)	i	1.1
Cc1cc(S(=O)(=O)NCc2ccccc2)ccc1OCC(=O)N1CCCC1	i	4
CC(=O)c1ccn(S(=O)(=O)c2ccccc2)c1	i	0.96
CCOc1ccc(NC(=S)NC(=O)c2cccnc2)c([N+](=O)[O-])c1	i	1.7
CC1CC(C)CN(C(=O)COC(=O)CNC(=O)C23CC4CC(CC(C4)C2)C3)C1 (stereo not given)	i	-0.42
COC(=O)C1CN(C(=O)C(C)Oc2cccc(C)c2C)c2ccccc2O1 (stereo not given)	i	-0.18
O=C(CN1CCN(C/C=C/c2ccccc2)CC1)NCc1ccccc1	i	0.1
O=C(Cc1ccccc1)N(c1ccc(F)cc1)C1C=CS(=O)(=O)C1 (stereo not given)	i	-0.24
CN(C)C(CNC(=O)CCS(=O)(=O)c1ccccc1)c1ccccc1 (stereo not given)	i	-1.1
O=[N+]([O-])c1ccc([N+](=O)[O-])c(Nc2ccc(N3CCOCC3)cc2)c1	i	1.1
O=c1cc2c(nn1Cc1ccccc1Cl)-c1ccccc1CC2	i	-0.05
CC(C)CCNC(=O)C(C)N(C(=O)c1snc(C(N)=O)c1N)c1cnc2ccccc2c1 (stereo not given)	i	-0.34
Cc1ccc(C(=O)N2CCC(C(=O)NCc3ccco3)CC2)cc1	i	1.4
O=C(O)c1cccc(-n2cccc2/C=C/[N+](=O)[O-])c1	i	3.3
Cc1ccc(NC(=O)COc2coc(CN3CCc4ccccc43)cc2=O)cc1Cl	i	0.15
CCOC(=O)c1c(NC(=O)CN2C(=O)NC3(CCC(C)CC3)C2=O)sc(C(=O)N(C)C)c1C (stereo not given)	i	-0.5
CSc1ccc(C(=O)C2CCCN(C(=O)Cc3nonc3C)C2)cc1 (stereo not given)	i	1.3
CCc1ccc2oc(C(=O)Nc3cccnc3)c(C)c2c1	i	0.81
CCc1ccc(NC(=O)CCn2c(=O)oc3ccccc32)cc1	i	1.6
Oc1ccccc1C1=Nc2nc3ccccc3n2C(c2ccccc2)C1 (stereo not given)	i	-1.9
CC1(C)Cc2c(sc3nnn(Cc4ccccc4)c(=O)c23)CO1	i	-0.99
Cc1cccc(NNC(N)=S)c1C	i	-0.54
COCc1cc(C)nc(SCc2ccc(Br)cc2)c1C#N	i	-1.3
CC(C)(C)C(=O)Nc1cccc(-c2ncon2)c1	i	-0.55
CCN(CC)C(=O)Cc1ccccc1	i	0.12
CCC(=O)Nc1cccc(NC(=O)CSc2nnc(C(C)C)n2CC)c1	i	-0.07
Nc1ccc(S(=O)(=O)c2ccc(Cl)cc2)cc1	i	-1
O=C(CCN1C(=O)CSC1=O)Nc1ccc(Br)cc1	i	0.14
CCc1ccc(NC(=O)CC2C(=O)N(c3ccc(C)cc3)C(=O)N2C2CC2)cc1 (stereo not given)	i	-0.39
O=S(=O)(Nc1ncccn1)c1ccc(NC(=S)Nc2ccccc2)cc1	i	1
C1CCC(OCCN2CCN(CCOC3CCCCC3)CC2)CC1	i	2.7
CO/N=C/NC(=O)c1ccc([N+](=O)[O-])c(CS(=O)(=O)c2ccc(Cl)cc2)c1	i	0.03
CCN1CCCC1CNC(=O)CSc1cc(=O)n(C)c2cc(Cl)ccc12 (stereo not given)	i	-1.6
O=C(c1cccc2ccccc12)N1CCN(CC2CC=CCC2)CC1 (stereo not given)	i	0.12
